Sa ugtP lethal = growth inhibition of ugtP-null S. aureus, primary screen, RN4220 ugtP deletion, OD600; 16 h; some inactives read as strong as hits; growth inhibition, % (no concentration beside the values); 0.54% of 330,000 active; AID 1259309, 2017;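 active = z-score under -3 and OD600 up to 0.15 on both plates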;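 also: plate controls were untreated wells for no effect and antibiotic for full effect; wells of about 80 µL received 100 nL stock; the first replicate is given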
BJeLR viability = MLPCN primary cell-based screen for lethality selective to Ras in HRASV12 cells | BJeLR (HRASV12) viability, CellTiter-Glo ATP luminescence, 48 h; reference of the scale not given here | inhibition, % (concentration not given with the values) | 0.17% of 300,000 active;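 active = replicate mean above 50%; inconclusive = above 50% but judged a plate artefact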;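 also: 50 nL library stock added to about 25 µL; numbers are from one replicate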
PrP UTR inh = inhibition of PrP 5' UTR reporter expression. cell-based PrP 5' UTR mRNA reporter, plate reader. inhibition, % (no concentration beside the values). 0.35% of 340,000 active;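 active = every replicate at 50% or more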;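 also: 0 = median of the neutral control wells; tested in H4 reporter cells; numbers are from one replicate; inactives centre near -14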
RN4220 kill = growth inhibition of S. aureus RN4220, primary screen, OD600; AID 1259311, 2017; 0.33% of 330,000 active; 16 h; inhibition, % (concentration not given with the values);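 active = z-score of -3 or lower and OD600 up to 0.18 on both plates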;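 also: plate controls were untreated cells for no effect and reference antibiotic for full effect; stock transfer was 100 nL into about 80 µL; one replicate is shown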
Autofluor counter = compound fluorescence in toxin protease inhibitor counterscreen; fluorescence intensity (concentration not given with the values); AID 624483; 3.1% of 360,000 active; compound autofluorescence counterscreen, microsphere flow cytometry; active compounds read high;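 active = at least 3 SD above the mean of all compounds, about 16000 in these data; inconclusive = too few beads counted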;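 also: 100 nL of 1 mM stock went into each well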
Mtb hypoxia inh = PubChem AID 1159583. M. tuberculosis hypoxia-regulated fluorescent reporter, fluorescence. fluorescence inhibition, % (test concentration not listed). 0.1% of 300,000 active;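 active = 35 to 45% if threefold the growth effect, above 45% if 1.5-fold the growth effect; inactive = the rest, general growth blockers included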;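 also: wells of about 50 µL received 100 nL stock; 0% = vehicle wells and 100% = reference inhibitor wells; whole bacteria with a GFP reporter of the hypoxia response; strong numbers were not always called active; many hits fall short of the cut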
Mtb hypoxia inh growth = also measured in Mtb hypoxia inh; calls as there; growth inhibition, %; measured here: M. tuberculosis growth (absorbance);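 0% = vehicle and 100% = reference antibiotic; read after six days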
Active calls of the source: *; ? = inconclusive; nt = not tested or not shown.

SMILES | Sa ugtP lethal | BJeLR viability | PrP UTR inh | RN4220 kill | Autofluor counter | Mtb hypoxia inh | Mtb hypoxia inh growth
Cc1csc(NC(=O)C2COc3ccccc3O2)n1 (configuration not stated) | -5 | 5 | 2 | -4.3 | 2465 | nt | nt
CCOC(=O)c1cc(C)sc1NC(=O)CN1CCN(C(=O)C2CCCO2)CC1 (configuration not stated) | 5 | 5 | -15 | 0.2 | 5309 | 10 | -2
CCN1CCc2nc(NC(=O)CC(c3ccccc3)c3ccccc3)sc2C1 | -16 | 8 | -18 | -2.1 | 4570 | -1 | 19
COc1ccc2c(c1)C(=O)Nc1cc(Cl)ccc1N2 | -4 | 8 | -31 | 4.1 | 2841 | 14 | 16
Cc1ccccc1CSCC(=O)NN=Cc1cccs1 | 2 | nt | nt | -1.0 | nt | -4 | 0
Cc1ccc2nc(NS(C)(=O)=O)sc2c1 | 2 | -16 | -23 | 2.9 | 4489 | 1 | 2
CC(C)COC(=O)C1[C@H]2C(=O)N(Cc3cccs3)C[C@]23C=C[C@H]1O3 (some centres not stated) | 11 | -12 | -13 | 4.8 | 5774 | 6 | 10
Cc1ccc(CCNC(=O)Cn2cccc2)cc1 | -1 | 11 | 4 | 5.2 | 11341 | 15 | 19
CCOC(=O)N1CCN(C(=O)CSc2ccc(-c3ccc(OC)cc3)nn2)CC1 | 4 | -10 | -8 | 6.2 | 3472 | 9 | -6
COc1ccc(NC(=O)CN(C)C(=O)c2csc3c2CCCC3)cc1 | 1 | -11 | -12 | 1.5 | ? | -3 | 16
Cc1nnc(SCC(=O)Nc2ccc(N3CCOCC3)cc2)n1Cc1ccccc1 | -2 | nt | -15 | 4.4 | 3904 | 20 | 9
Cc1cc2cc(CNC(=S)NCc3ccccc3)ccc2n1C | 5 | -2 | -26 | -0.2 | 2043 | 9 | -3
CC(=O)Nc1ccc(NC(=S)NC(=O)C2CCCC2)cc1 | 32 | 0 | -42 | 0.0 | 6127 | 2 | 4
COCCn1c(SCC(=O)N2CCCCC2)nc2cccnc21 | 3 | -4 | 1 | 2.2 | 5112 | nt | nt
CCOc1ccc(OCC)c(NC(=O)CCn2c(=O)oc3ccccc32)c1 | -10 | -1 | -49 | 4.2 | 19376* | 10 | 5
CCc1ccc(NC(=O)NCCN2CCCCC2)cc1 | 2 | 2 | -17 | 1.2 | 4339 | 4 | 2
COC(=O)CC(NS(=O)(=O)c1cccs1)c1ccc2c(c1)OCO2 (configuration not stated) | 10 | -1 | -3 | 5.5 | 4914 | 0 | -7
CCCOc1ccccc1NC(=NS(=O)(=O)c1ccc(C)cc1)Nc1nc(C)cc(C)n1 | -14 | nt | nt | 2.2 | nt | 5 | 6
CCOc1ccc(C2C(C#N)=C(N)Oc3cc(C)[nH]c(=O)c32)cc1OC (configuration not stated) | 8 | 9 | -17 | 1.9 | 4254 | 19 | -2
CCNC(=O)Nn1c(C)nnc1C | -1 | -1 | -21 | -9.5 | 3032 | 18 | 9
O=C(CC1=NC2(CCCC2)Cc2ccccc21)N1CCOCC1 | 1 | -2 | -7 | 2.2 | 5349 | 4 | -1
CCCCNC(=O)COn1nnc2ccc(S(=O)(=O)N3CCOCC3)cc21 | 3 | -4 | -15 | 2.1 | 7369 | 2 | 9
CCCCNC(=O)Nc1nnc(-c2ccc(Cl)cc2)o1 | -1 | 2 | -34 | 3.0 | 2869 | 19 | 3
CCOC(=O)N1CCN(C(=O)C2CCCN(S(=O)(=O)c3ccc(OCC)cc3)C2)CC1 (configuration not stated) | 10 | 5 | -16 | 0.3 | 6952 | 11 | -1
CCc1noc(C)c1C(=O)NCCc1c[nH]c2ccccc12 | 2 | -2 | -12 | 2.2 | nt | 5 | 0
COc1ccc(/C=C(/NC(=O)c2ccccc2)C(=O)N/N=C/c2sccc2C)cc1 | nt | 5 | 4 | nt | 2479 | nt | nt
Oc1ccc(Oc2ccc(Oc3ccc(O)cc3)cc2)cc1 | -17 | 1 | -21 | 4.7 | 3666 | 2 | 7
COc1ccc(CCNC(=O)/C=C/C(=O)O)cc1OC | 4 | nt | -36 | 1.3 | 4239 | -5 | 5
COc1ccc(C2CC(c3ccc(OC)c(OC)c3)=NN2S(C)(=O)=O)cc1 (configuration not stated) | 4 | 6 | -109 | 4.9 | 3966 | 11 | 11
Cc1cccc(-n2c(SCC(=O)Nc3ncc(Cl)cc3Cl)nc3ccccc32)c1 | -11 | 26 | 13 | 2.2 | 2494 | 2 | -6
C[C@@H](C(=O)N1CCNCC1)n1cc(CCC(=O)O)nn1 | nt | -2 | -3 | nt | 3876 | nt | nt
O=c1c2ccccc2nc(/C=C/c2cccc([N+](=O)[O-])c2)n1CCO | nt | -12 | -1 | nt | 2103 | nt | nt
CN(C)C(CNC(=O)CCc1nc2ccccc2s1)c1ccccc1 (configuration not stated) | -1 | -5 | -11 | 2.9 | 3969 | 12 | 3
CC1CCN(C2=NC(=O)/C(=C/c3cn(-c4ccccc4)nc3-c3cccc(S(=O)(=O)N(C)C)c3)S2)CC1 | nt | -2 | -16 | nt | 2932 | nt | nt
COc1ccc(-c2nc(=S)[nH][nH]2)cc1 | -6 | 9 | -17 | 1.4 | 2759 | nt | nt
CSc1ccc(Cl)c(C(=O)N2CCN(c3ncccn3)CC2)c1 | 3 | nt | -16 | 3.9 | 6081 | 4 | -2
CNc1n[nH]c(=S)s1 | -3 | -5 | -11 | 3.0 | 3900 | -11 | 3
O=c1cc(CN2CCN(c3ccc(O)cc3)CC2)nc2scc(-c3ccccc3)n12 | 4 | -7 | -20 | 1.6 | 3748 | 8 | 8
CCC(c1nnc(SCC(=O)N2CC(=O)Nc3ccccc32)n1Cc1ccccc1)N(C)C (configuration not stated) | -2 | 7 | -10 | -5.1 | 2816 | nt | nt
CC1(C)CC(N(CCc2ccccc2)Cc2ccccc2)CCO1 (configuration not stated) | 3 | -3 | -13 | 4.8 | 3256 | 3 | -4
S=c1[nH]nc(-c2ccccc2)n1/N=C/c1c[nH]c2ccccc12 | nt | 8 | -17 | nt | 9147 | nt | nt
CCOC(=O)N1CCN(C(=O)CN(CC)S(=O)(=O)c2cc(C)ccc2OC)CC1 | 9 | 10 | -27 | 3.6 | 4013 | 3 | -8
O=C(CCN1C(=O)c2ccccc2C1=O)Nc1sc2c(c1C(=O)NCC1CCCO1)CCC2 (configuration not stated) | nt | 9 | -29 | nt | 2613 | nt | nt
COC(=O)c1ccc(OCC(=O)NC2CCCCCCC2)cc1 | 2 | nt | -33 | -1.7 | 4280 | 8 | 10
Cc1cc(N2CCOCC2)nc2ccc(NC(=O)CCC(=O)N3CCCC(C)C3)cc12 (configuration not stated) | 5 | 8 | -29 | 2.1 | 4356 | 0 | 1
COc1ccccc1OCCSc1nc2ccccc2n1CCO | 3 | -8 | -23 | 7.2 | 3324 | 4 | -2
CCC(=NNC(=O)c1ccc2c(c1)OCO2)c1ccccc1O | 25 | nt | nt | 19 | nt | 1 | -4
O=C(/C=C/c1ccc(F)cc1)Nc1cccc(S(=O)(=O)N2CCOCC2)c1 | -24 | nt | -19 | -7.8 | 3547 | 12 | 6
CCOC(=O)N1CCN(S(=O)(=O)c2ccc(Cl)cc2)CC1 | 4 | 3 | -14 | 4.5 | 3544 | 14 | 5
C=CCNC(=S)N1CCN(CCN=CC2=C(O)CC(c3ccc(Cl)cc3)CC2=O)CC1 (configuration not stated) | 0 | 2 | -21 | -1.0 | 4349 | -14 | 8
CCc1cccc(CC)c1NC(=O)CN1CCN(c2ccccc2)CC1 | -1 | -10 | -10 | 9.8 | 8100 | 4 | 11
O=C(O)C(C=C(Cl)Cl)N1CCOCC1 (configuration not stated) | -3 | nt | -12 | -1.6 | 2912 | 0 | 8
Cc1nc2c(-c3ccccc3)cnn2c(N2CCOCC2)c1C | -1 | 4 | -60 | -0.6 | 4117 | 1 | -3
Cc1cc[n+](CCC(=O)O)c2ccccc12 | -1 | -5 | -21 | 0.0 | 8215 | 12 | 1
Cc1noc(C)c1CSc1nnc(-c2ccccc2)o1 | 7 | 0 | -3 | 11 | 4126 | 19 | 15
CCCC(=O)Nc1nnc(S(=O)(=O)N2CCCC2)s1 | 2 | 8 | -17 | 1.6 | 5275 | 7 | -2
Cc1cccc(N2C(=O)N3C4c5ccccc5OCC4C(c4ccccc4)[C@@]3(C)C2=O)c1 (some centres not stated) | 4 | nt | nt | -4.7 | nt | -6 | 8
Cc1cccc(OCc2nnc(SCC(=O)N3c4ccccc4CC3C)n2C)c1C (configuration not stated) | -17 | 3 | -23 | 6.8 | 2980 | 1 | 10
O=C(NN=Cc1ccc(-c2ccc(S(=O)(=O)Nc3ncccn3)cc2)o1)c1cc2ccccc2cc1O | 5 | nt | nt | 0.7 | nt | 20 | 8
Clc1ccccc1OCc1nc(-c2ccccn2)no1 | 4 | 9 | -113 | 4.2 | 2880 | 1 | 5
More structures follow:
SMILES | Sa ugtP lethal | BJeLR viability | PrP UTR inh | RN4220 kill | Autofluor counter | Mtb hypoxia inh | Mtb hypoxia inh growth
O=C(Cc1ccccc1)NC(NCCc1ccccc1)C(Cl)(Cl)Cl (configuration not stated) | 0 | 0 | -18 | -14 | 3513 | 19 | 8
COc1ccc(/C=C2\SC(=S)N(CCCC(=O)N3CCCCC3CCO)C2=O)cc1 (configuration not stated) | -6 | 7 | 9 | 3.0 | 4385 | 2 | 0
COc1cccc(C(=O)CN2C(=O)C(C)(C)Oc3ccc(C(=O)N4CCCCCC4)cc32)c1 | 7 | 6 | -10 | -1.5 | 4164 | nt | nt
Cc1ccccc1NCC(=O)N/N=C\C=C\c1cccc([N+](=O)[O-])c1 | nt | 6 | -16 | nt | 2530 | nt | nt
C[C@]12c3[nH]c4cc(-c5ccco5)ccc4c3CCN1C(=O)[C@@H](CC(=O)NCCc1ccccn1)C[C@@H]2C(=O)N1CCCCC1 | 4 | nt | 7 | -0.3 | 3090 | -1 | 0
CCOc1cc(C(=O)CCC(=O)OCC(=O)N2c3ccccc3NC(=O)C2(C)C)ccc1O | -5 | -7 | -9 | -2.3 | 4349 | 5 | 0
CCCCNc1c2c3c(cccc3n(C)c1=O)C(=O)c1ccccc1-2 | -5 | -10 | -13 | 9.0 | 8728 | -26 | -1
CC[C@]12c3[nH]c4cc(CCC(=O)N(C)C)ccc4c3CCN1C(=O)[C@@H](CC(=O)NCc1cccc(C(F)(F)F)c1)C[C@@H]2C(=O)N1CCN(C(=O)C2CC2)CC1 | 3 | nt | -14 | -0.5 | 3648 | -2 | 4

Among those listed so far, 12 contain an aryl methoxy group:
SMILES | Sa ugtP lethal | BJeLR viability | PrP UTR inh | RN4220 kill | Autofluor counter | Mtb hypoxia inh | Mtb hypoxia inh growth
COc1ccc2c(c1)C(=O)Nc1cc(Cl)ccc1N2 | -4 | 8 | -31 | 4.1 | 2841 | 14 | 16
CCOC(=O)N1CCN(C(=O)CSc2ccc(-c3ccc(OC)cc3)nn2)CC1 | 4 | -10 | -8 | 6.2 | 3472 | 9 | -6
COc1ccc(NC(=O)CN(C)C(=O)c2csc3c2CCCC3)cc1 | 1 | -11 | -12 | 1.5 | ? | -3 | 16
CCOc1ccc(C2C(C#N)=C(N)Oc3cc(C)[nH]c(=O)c32)cc1OC (configuration not stated) | 8 | 9 | -17 | 1.9 | 4254 | 19 | -2
COc1ccc(/C=C(/NC(=O)c2ccccc2)C(=O)N/N=C/c2sccc2C)cc1 | nt | 5 | 4 | nt | 2479 | nt | nt
COc1ccc(CCNC(=O)/C=C/C(=O)O)cc1OC | 4 | nt | -36 | 1.3 | 4239 | -5 | 5
COc1ccc(C2CC(c3ccc(OC)c(OC)c3)=NN2S(C)(=O)=O)cc1 (configuration not stated) | 4 | 6 | -109 | 4.9 | 3966 | 11 | 11
COc1ccc(-c2nc(=S)[nH][nH]2)cc1 | -6 | 9 | -17 | 1.4 | 2759 | nt | nt
CCOC(=O)N1CCN(C(=O)CN(CC)S(=O)(=O)c2cc(C)ccc2OC)CC1 | 9 | 10 | -27 | 3.6 | 4013 | 3 | -8
COc1ccccc1OCCSc1nc2ccccc2n1CCO | 3 | -8 | -23 | 7.2 | 3324 | 4 | -2
COc1ccc(/C=C2\SC(=S)N(CCCC(=O)N3CCCCC3CCO)C2=O)cc1 (configuration not stated) | -6 | 7 | 9 | 3.0 | 4385 | 2 | 0
COc1cccc(C(=O)CN2C(=O)C(C)(C)Oc3ccc(C(=O)N4CCCCCC4)cc32)c1 | 7 | 6 | -10 | -1.5 | 4164 | nt | nt

Screening data (PubChem BioAssay)
